Rce1 inhib = inhibitors of yeast Ras-converting enzyme. calls only. yeast membranes, quenched prenylated peptide cleavage fluorescence. AID 2563. hit rate 0.27% among 290,000;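 active means fall in fluorescence gain of 50% or more versus controls, with final raw signal at or below 3038400; inconclusive means same 50% fall but final raw signal above 3038400; inactive means fall in fluorescence gain under 50%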;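 further: plate controls were neutral control wells for no effect and wells lacking membranes for full effect; tested at 10 µM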
MT1-MMP act inh = MT1-MMP (human) activation inhibition. GFP/RFP ratio change, % at 20 µM. P50281. AID 651647. hit rate 0.061% among 360,000. HT1080 RFP-PRO-GFP cells, GFP/RFP ratio fluorescence, overnight; percent of plate control window, DMSO zero;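 active means GFP/RFP ratio change of at least 30% with cell ATP level not reduced by more than half and red fluorescence within 50% of control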; further: strong numbers were not always called active
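Assay system – RFP-PRO-GFP reporter HT1080 cells · Compound dosing – single dose of 20 µM compound, 1% DMSO final · Incubation – overnight compound exposure at 37 °C · Measure – GFP/RFP fluorescence ratio · Benchmarks – DMSO wells and RFP-L50D-GFP cells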
PABP FP inh = PABP-poly(A) binding inhibition; P11940; hit rate 1% among 290,000; PABP-poly(A) RNA binding, fluorescence polarization; inhibition, % at 35 µM;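 active means 50% or more with normal probe brightness, or confirmed in later tests; inconclusive means above 50% with abnormal brightness, or retests that disagree; inactive means below 50% or failed in later tests; about a fifth of its hits are not listed in these tables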;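 further: calls also rest on retests at 20 µM and on dose response follow-up; controls were probe without protein and protein plus probe with vehicle; some compounds called inactive have numbers as strong as hits; many hits fall short of the cut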
Target sequence (P11940 whole entry, looked up): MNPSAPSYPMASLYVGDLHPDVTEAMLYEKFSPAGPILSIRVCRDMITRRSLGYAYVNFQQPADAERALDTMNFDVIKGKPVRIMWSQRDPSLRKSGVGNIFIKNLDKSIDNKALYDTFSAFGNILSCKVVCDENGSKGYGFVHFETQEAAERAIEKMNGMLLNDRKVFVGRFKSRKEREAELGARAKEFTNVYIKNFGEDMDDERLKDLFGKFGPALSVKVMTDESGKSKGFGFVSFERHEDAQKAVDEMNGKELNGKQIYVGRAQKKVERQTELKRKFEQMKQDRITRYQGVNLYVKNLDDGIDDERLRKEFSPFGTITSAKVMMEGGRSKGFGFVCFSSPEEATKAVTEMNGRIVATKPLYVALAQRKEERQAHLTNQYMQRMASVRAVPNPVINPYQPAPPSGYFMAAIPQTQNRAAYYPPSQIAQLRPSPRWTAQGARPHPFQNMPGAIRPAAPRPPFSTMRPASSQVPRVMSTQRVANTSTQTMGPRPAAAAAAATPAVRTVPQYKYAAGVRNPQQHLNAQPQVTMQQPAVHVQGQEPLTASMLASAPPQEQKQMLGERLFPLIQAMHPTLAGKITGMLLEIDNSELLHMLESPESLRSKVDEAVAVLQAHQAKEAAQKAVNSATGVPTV
CSC inhib = cancer stem cell inhibition; cancer stem cell-like cells viability, luminescence; inhibition, % at 7.5 µM; hit rate 1.1% among 300,000;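 active means mean at 75% or more and at least half the replicates too; inconclusive means mean and replicates disagree; tested in HMLE shEcad cells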;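 further: 0% = median of negative and 100% = median of positive control wells; the first replicate is given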
Yeast UUG start = modulators of start codon recognition fidelity in yeast | S. cerevisiae UUG-firefly luciferase reporter, luminescence/redox ratio | activity score, % at 18.7 µM | hit rate 0.13% among 350,000;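 active means replicate mean at a twofold rise or more, about +100% in these data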;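 further: firefly luciferase made from a UUG start codon reports start codon fidelity; reporter light over untreated wells divided by growth signal over untreated wells; some hits fall short of that in this replicate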
eIF4H inh = inhibitors of RNA binding by human eIF4H; Q15056; eIF4H fluorescence polarization binding assay; inhibition, % at 35 µM; hit rate 0.94% among 290,000; AID 2012;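 active means 50% or more with normal probe brightness, or confirmed in later tests; inconclusive means above 50% with abnormal brightness, or retests that disagree; inactive means below 50% or failed in later tests; about a fifth of its hits are not listed in these tables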;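 further: calls also rest on retests at 20 µM and on dose response follow-up; 0% = protein and probe with vehicle and 100% = probe without protein; strong numbers were not always called active; many hits fall short of the cut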
HIV Env fusion = blocks HIV Env-driven cell-cell fusion; hit rate 1.1% among 360,000; HeLa-JRFL Env/CEM21 cell fusion, luciferase; inhibition, % at 12.3 µM;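 active means mean replicate inhibition score of at least 50 and every replicate individually at or above 50; inconclusive means only one of the two criteria met; inactive means mean below 50 and not all replicates reaching 50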;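 further: 0% = plate neutral controls and 100% = maraviroc near 300 nM; one replicate is shown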
eIF4H inh retest = second read-out of eIF4H inh, no call of its own (marks repeat the call); inhibition, %; compound at 20 µM; confirmation average;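 mean of two retest wells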
PABP FP inh retest = recorded beside PABP FP inh, whose call it bears; inhibition, %; compound at 20 µM; confirmation repeats;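 mean of two retest wells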
MT1-MMP act inh RFP = second read-out of MT1-MMP act inh, no call of its own (marks repeat the call); RFP signal change, %; measured here: RFP expression control read;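 0 = vehicle wells; hits needed this value within 50% of zero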
Starred values were filed as active, the others as inactive; i = inactive; ? = inconclusive; / = not tested or not shown; + = active, no number.

A first look (13 entries):
SMILES	Rce1 inhib	MT1-MMP act inh	MT1-MMP act inh RFP	PABP FP inh	CSC inhib	Yeast UUG start	eIF4H inh	HIV Env fusion	others
Cc1ccc(NC(=O)c2ccccc2N(C)S(C)(=O)=O)cc1C	i	-3	0	-7	-1	-7	0	-44
Cc1ccc2nc(N3CCN(S(=O)(=O)c4ccc5c(c4)OCCO5)CC3)c(C#N)cc2c1	i	-3	-11	-7	8	-15	-2	53
O=C(CN(Cc1ccccc1)C(=O)CNS(=O)(=O)c1ccc(Cl)cc1)NCC1CCCO1 (stereo unspecified)	i	0	3	-5	/	-4	-4	-10
CCOC(=O)c1c(NC(C)=O)sc2c(OCCN(CC)CC)c(Br)ccc12	i	-2	-2	32	28	/	0	-49
O=C(O)CCn1c(-c2ccccn2)nc2ccccc21	i	1	-1	15	-13	-36	91*	-12	eIF4H inh retest=88*;PABP FP inh retest=15
CCc1ccccc1NC(=S)N(CCCN1CCOCC1)Cc1ccccn1	i	1	4	0	-6	/	-5	-1
Cc1nc2ncnn2c(C)c1Cc1ccc(Cl)cc1	i	4	4	-6	-15	-9	-5	27
CCN1CCN(C(=S)Nc2ccc3nc(N4CCN(CC)CC4)cc(C)c3c2)CC1	i	-2	-2	0	-3	-19	-14	/
O=C(CCCCC(=O)NCCc1ccccc1)NCCc1ccccc1	i	-3	-3	-3	0	13	0	18
Cc1c(C(=O)OC2CCCCC2)[nH]c2c1C(=O)CC(C)(C)C2	i	-10	-13	0	33	-11	-1	/
Cc1ccc(S(=O)(=O)/N=C(\Nc2cccc(C)c2)Nc2nc(C)cc(C)n2)cc1	i	-1	5	6	10	/	13	1
COc1c(C)cc(Br)cc1C(=O)Nc1ccccc1N1CCN(C(=O)c2ccccc2)CC1	i	-18	-17	-8	33	/	-13	22
COc1cccc(C(=O)COC(=O)CCCC(=O)NC2CCCCC2)c1	i	1	3	-2	-14	-10	-8	-2

The listing (from the top)
SMILES	Rce1 inhib	MT1-MMP act inh	MT1-MMP act inh RFP	PABP FP inh	CSC inhib	Yeast UUG start	eIF4H inh	HIV Env fusion	others
Cc1ccc(NC(=O)c2ccccc2N(C)S(C)(=O)=O)cc1C	i	-3	0	-7	-1	-7	0	-44
Cc1ccc2nc(N3CCN(S(=O)(=O)c4ccc5c(c4)OCCO5)CC3)c(C#N)cc2c1	i	-3	-11	-7	8	-15	-2	53
O=C(CN(Cc1ccccc1)C(=O)CNS(=O)(=O)c1ccc(Cl)cc1)NCC1CCCO1 (stereo unspecified)	i	0	3	-5	/	-4	-4	-10
CCOC(=O)c1c(NC(C)=O)sc2c(OCCN(CC)CC)c(Br)ccc12	i	-2	-2	32	28	/	0	-49
O=C(O)CCn1c(-c2ccccn2)nc2ccccc21	i	1	-1	15	-13	-36	91*	-12	eIF4H inh retest=88*;PABP FP inh retest=15
CCc1ccccc1NC(=S)N(CCCN1CCOCC1)Cc1ccccn1	i	1	4	0	-6	/	-5	-1
Cc1nc2ncnn2c(C)c1Cc1ccc(Cl)cc1	i	4	4	-6	-15	-9	-5	27
CCN1CCN(C(=S)Nc2ccc3nc(N4CCN(CC)CC4)cc(C)c3c2)CC1	i	-2	-2	0	-3	-19	-14	/
O=C(CCCCC(=O)NCCc1ccccc1)NCCc1ccccc1	i	-3	-3	-3	0	13	0	18
Cc1c(C(=O)OC2CCCCC2)[nH]c2c1C(=O)CC(C)(C)C2	i	-10	-13	0	33	-11	-1	/
Cc1ccc(S(=O)(=O)/N=C(\Nc2cccc(C)c2)Nc2nc(C)cc(C)n2)cc1	i	-1	5	6	10	/	13	1
COc1c(C)cc(Br)cc1C(=O)Nc1ccccc1N1CCN(C(=O)c2ccccc2)CC1	i	-18	-17	-8	33	/	-13	22
COc1cccc(C(=O)COC(=O)CCCC(=O)NC2CCCCC2)c1	i	1	3	-2	-14	-10	-8	-2
S=C1SCN(Cc2ccco2)CN1Cc1ccco1	i	2	0	6	20	-11	16	15
CSc1nc2ccc(S(=O)(=O)NC3CCCCC3)cc2s1	i	-2	-13	-2	20	/	1	/
O=c1cc(CSc2ccc(Cl)cc2)nc(-c2ccncc2)[nH]1	i	0	2	4	-3	/	2	11
CCN(c1ccc(OC)cc1)S(=O)(=O)c1nnc(NC(=O)c2ccccc2Cl)s1	i	12	-1	/	21	-15	/	/
CC(=O)OC(C(=O)n1nc(C)cc1C)c1ccccc1 (stereo unspecified)	i	3	5	9	-10	-38	-15	-25
O=C(NCc1cccc(OC(F)(F)F)c1)C1CCC(=O)N(Cc2cccc(F)c2)C1 (stereo unspecified)	i	0	-3	-2	11	0	-8	7
Cc1cc(-c2ccc(Br)s2)nc(-n2cccc2)n1	i	-13	0	48	/	/	84	1	eIF4H inh retest=-15;PABP FP inh retest=-2
COc1ccc2c(c1)c1ncn(CCN3CCNCC3)c(=O)c1n2C	?	19	4	-12	3	/	0	/
CCCCCN(C(=O)CCC(=O)OCc1ccccc1C)c1c(N)n(CCCC)c(=O)[nH]c1=O	i	-1	-7	/	-17	-1	/	/
CC(=O)CCc1ccc(OC(=O)c2cccnc2)cc1	i	-3	0	-10	-1	4	-12	/
c1ccc(-c2cnnc(N3CCCCC3)n2)cc1	i	-2	-1	11	0	-13	-6	/
O=C(NCC(=O)N(Cc1ccccc1)C(C(=O)NC1CCCC1)c1ccncc1)c1ccco1 (stereo unspecified)	i	6	10	14	-5	-12	7	/
CC[n+]1ccc(/C=C2\Sc3ccccc3N2CCCS(=O)(=O)[O-])c2ccccc21	i	-24	1	55*	-1	-5	0	12
Cn1c(SCc2ccc(Cl)cc2)nnc1-c1ccc2nonc2c1	i	-1	-1	6	33	/	1	17
CC(OC(=O)C1CCCCC1)c1nc2ccccc2[nH]1 (stereo unspecified)	i	0	-13	14	/	/	-4	/
COC(=O)[C@@H](NC(=O)O[C@@H]1C(=O)c2cc(Br)ccc2O[C@H]1c1cccc(OC)c1)C(C)C	i	/	/	-2	11	/	-16	/
CCOc1ccccc1CNC(=O)c1ccc(NC(=O)C2=CSCCO2)cc1	i	4	3	-4	2	-9	-14	-4
COc1ccc(C(=O)NNC(=O)c2cccs2)cc1S(=O)(=O)N1CCOCC1	/	12	0	/	-7	-1	/	4
CC(C)CCn1nc(C(=O)OCC(=O)NC(C)c2ccccc2)c2ccccc2c1=O (stereo unspecified)	/	0	1	/	/	1	/	-6
O=C(Nc1ccccc1C(F)(F)F)C1CCCC1	i	1	2	8	-13	-14	3	6
O=C(CCNC(=O)N1CC(=O)Nc2ccccc21)NCCc1cccc(F)c1	+	0	6	-2	14	-3	2	1
COc1ccc(-c2ncncc2-c2csc(C)n2)c(O)c1	i	-1	0	-7	0	-15	-2	/
CCOC(=O)c1[nH]c(C)c(CN(CCc2ccccc2)S(C)(=O)=O)c1C	i	-3	-7	4	2	-8	-10	18
COc1ccc(N2CCCC2)c(NC(=O)c2ccc([N+](=O)[O-])o2)c1	i	-38	0	?	5	-19	?	-2
Cc1ccc(/C=[N+](/C)[O-])cc1	i	-2	1	?	-6	/	-6	6
NC(=O)c1nsc(C(=O)N(c2ccccc2)C(C(=O)NCc2ccc(F)cc2)c2ccco2)c1N (stereo unspecified)	i	-1	-5	12	15	-14	0	7
CCCCn1c(=O)[nH]c(=O)c2c1nc(-c1ccc([N+](=O)[O-])cc1)n2CC	i	11	6	1	5	-8	0	-12
O=C(COc1ccc2ccc(=O)oc2c1)NCCc1c[nH]c2ccc(F)cc12	+	3	-4	26	4	-23	6	-4
O=C(COC(=O)C1C2CC3OC(=O)C1C3C2)Nc1ccc(Br)cc1 (stereo unspecified)	i	6	1	-4	-16	-7	3	-6
CCC(=O)N1CCCn2c1nc1ccccc12	i	12	7	4	-18	-11	-16	/
CCOC(=O)c1cc2sc(C)cc2n1CC(=O)N1CCc2ccccc21	i	9	3	-3	-3	-1	-5	/
COc1ccc(OC)c(N(CC(=O)Nc2ccccc2)S(=O)(=O)c2ccccc2)c1	i	-2	-2	-12	-3	-8	-19	12
COc1ccc(C(=O)NC(=S)Nc2ccc(N3CCN(C(C)=O)CC3)cc2)cc1[N+](=O)[O-]	i	3	-5	-9	-7	/	-4	4
COc1cc(OC)c(C(=O)OCCCOC(=O)c2cc(OC)c(OC)cc2OC)cc1OC	i	1	0	8	-6	3	18	-11
Cc1cc(C(=O)N2CCN(C(=O)C3CCCO3)CC2)no1 (stereo unspecified)	i	9	5	-1	-12	18	-8	19
COc1ccc2c(c1)CC(C1(O)C(=O)Nc3ccccc31)C2=O (stereo unspecified)	i	0	8	-1	9	-6	-4	-20
COc1ccc(Cl)c(Cn2c(NCc3ccco3)nc3c2c(=O)n(C)c(=O)n3C)c1	/	-1	-10	37	2	/	79	/	eIF4H inh retest=15;PABP FP inh retest=17
Cc1ccc(OC(C)C(=O)Nc2ccc(S(=O)(=O)Nc3nccs3)cc2)cc1 (stereo unspecified)	i	6	3	-5	-2	-5	16	/
O=C(Nc1ccccc1CC[N+](=O)[O-])N1CCN(c2ccccc2)CC1	i	-5	-1	9	-6	-20	4	-4
CCC(C)NC(=S)Nc1ccccc1 (stereo unspecified)	i	3	1	3	/	-12	2	15
Cc1cccc(-c2nc(CSc3nc4c(c(=O)[nH]3)CCC4)c(C)o2)c1	i	2	-2	26	13	-21	9	-24
CC(C)COc1ccc(/C(O)=C2/C(=O)C(=O)N(CCN(C)C)C2c2ccncc2)cc1 (stereo unspecified)	i	0	-1	-1	-1	-15	-2	/
CCOC(=O)c1cnn(-c2ccc(C(F)(F)F)cn2)c1N	i	7	5	-3	-9	-6	-4	-70
CCOc1ccc(NC(=O)CCC(=O)Nc2cc(OC)c(NC(=O)c3ccco3)cc2OC)cc1	i	2	3	6	-2	-22	5	-13
O=C(CN1CCOCC1)Nc1ccc2c(c1)OCO2	i	0	2	4	-6	-11	-1	5
COc1cc(OC)cc(C(=O)Nn2cnnc2)c1	i	0	1	-6	-3	-13	1	-2
COc1cc(NC(=S)NN2CCOCC2)cc(OC)c1	/	-4	2	/	/	-17	/	-58
The listing continues.
SMILES	Rce1 inhib	MT1-MMP act inh	MT1-MMP act inh RFP	PABP FP inh	CSC inhib	Yeast UUG start	eIF4H inh	HIV Env fusion	others
COCC(CN1CCN(C2=NS(=O)(=O)c3ccccc32)CC1)OC(=O)c1ccccc1 (stereo unspecified)	i	1	4	6	1	/	-2	-9
COC(=O)c1ccc(NC(=O)COC(=O)CCC2CCCC2)cc1	/	2	5	/	/	3	/	-10
O=C(COC(=O)c1cccc(Cl)c1Cl)NC1CCCCCC1	/	0	1	/	/	-2	/	-6
O=C(CSc1nccn1Cc1ccco1)Nc1ccccc1C(F)(F)F	i	-4	-3	2	-7	37	2	-12
CC(C)(C)NC(=O)CSc1nsc(SCC(=O)NC(C)(C)C)c1C#N	i	14	-2	-8	-12	5	-4	24
CC(O)[C@H]1CNC(=O)C(=O)N1CCc1cccc2ccccc12 (stereo partly specified)	i	4	4	-2	-4	6	3	3
Cc1noc(C)c1C(=O)NCC(=O)Nc1ccccc1Br	/	-7	-1	/	-3	-20	/	/
CCOc1ccccc1C1NC(=O)CCC1[N+](=O)[O-] (stereo unspecified)	i	-2	-1	-2	-9	-13	-5	3

Screening results (PubChem BioAssay)
